Mtb growth: M. tuberculosis H37Rv growth inhibitors, H37Rv strain (AID 1626) | inhibition, % at 10 µM, or IC50 in µM where a hit was titrated | actives 0.95% (n = 220,000) | M. tuberculosis H37Rv growth inhibition; higher % means a stronger effect;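 active = confirmed in a dose series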;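 note: bacteria incubated seven days before Alamar blue readout; 0% = bacteria only wells and 100% = bacteria with antibiotic wells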
RecA intein inh: Mtb RecA intein splicing inhibitors, primary screen, biochemical, fluorescence, HTS; Protein RecA (Mycobacterium tuberculosis (strain ATCC 25618 / H37Rv)), P9WHJ3; cell-free RecA intein splicing; inhibition, %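 (about 9 µM by stock and volumes)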; actives 0.75% (n = 290,000); in the data active = inhibition above about 30%;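 note: 0% = vehicle wells and 100% = reference inhibitor control wells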
Target sequence (P9WHJ3 whole entry, looked up): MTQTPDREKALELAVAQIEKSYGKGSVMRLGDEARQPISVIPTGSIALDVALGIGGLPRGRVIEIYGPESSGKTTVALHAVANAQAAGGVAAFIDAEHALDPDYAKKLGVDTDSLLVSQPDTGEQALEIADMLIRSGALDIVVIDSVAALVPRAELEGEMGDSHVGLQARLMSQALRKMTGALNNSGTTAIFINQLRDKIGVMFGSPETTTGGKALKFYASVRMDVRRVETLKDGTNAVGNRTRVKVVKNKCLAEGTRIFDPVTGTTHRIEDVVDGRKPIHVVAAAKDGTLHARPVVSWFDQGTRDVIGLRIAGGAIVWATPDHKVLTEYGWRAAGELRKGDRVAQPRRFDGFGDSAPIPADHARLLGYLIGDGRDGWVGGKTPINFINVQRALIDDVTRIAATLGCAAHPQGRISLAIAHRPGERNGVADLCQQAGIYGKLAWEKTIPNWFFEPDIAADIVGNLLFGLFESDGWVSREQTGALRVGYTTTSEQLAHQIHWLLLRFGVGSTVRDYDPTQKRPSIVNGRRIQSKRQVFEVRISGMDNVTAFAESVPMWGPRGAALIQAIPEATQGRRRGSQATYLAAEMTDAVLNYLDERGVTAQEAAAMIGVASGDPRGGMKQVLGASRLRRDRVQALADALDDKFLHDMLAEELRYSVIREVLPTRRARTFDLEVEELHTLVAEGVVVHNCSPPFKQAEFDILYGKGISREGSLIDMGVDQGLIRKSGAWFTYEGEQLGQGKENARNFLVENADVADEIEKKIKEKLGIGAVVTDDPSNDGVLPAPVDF
YopH PTP inh: YopH tyrosine phosphatase inhibitors, primary screen, biochemical, fluorescence Ex485/Em525; AID 898, 2007; actives 0.16% (n = 140,000); inhibition, %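 (about 10 µM by stock and volumes)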;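 active = inhibition of 50% or more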;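 note: controls were vehicle for no effect and minimum signal wells for full effect; inactives centre near -20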
Arbovirus anti: antivirals against arbovirus infection, primary screen, cell-based, full library, 10K replicate subset. arbovirus infection cell-based antiviral screen. inhibition, % at 10 µM. actives 0.37% (n = 200,000);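 active = inhibition from about 30%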;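 note: bluetongue infection of BSR cells; cell survival read as ATP light after 72 h; 0% = infected wells without compound and 100% = uninfected wells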
Mtb betalactam: beta-lactam sensitization of Mtb H37Rv, H37Rv; M. tuberculosis H37Rv growth with meropenem, percent inhibition; hits of this screen are not shown here; inhibition, % at 25 µM; actives 0.27% (n = 330,000);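 active = about 74% or more and at least 40 points above the plate without the antibiotic, then above 30% in a dose series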;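 note: growth measured after seven days incubation then overnight dye step; 0% = bacteria only wells and 100% = bacteria with antibiotic; twin plates without the antibiotic show which effects depend on it; some results filed as inactive read as strong as hits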
Arbovirus anti repeat: further read-out of Arbovirus anti, marked with its call; inhibition, %; measured here: 10K subset replicate screen; many hits read low in the repeat;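 first of two repeat runs on a subset; 0% = infected and 100% = uninfected wells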
* hit, by the source's call; · = no result given. These rows are one share of the data; rates above refer to the full screens.

SMILES | Mtb growth | RecA intein inh | YopH PTP inh | Arbovirus anti | Mtb betalactam | others
Cc1cccc(N2CCN(C(=O)C3CCN(S(=O)(=O)N4CCOCC4)CC3)CC2C)c1 (stereo unspecified) | -2% | -0.1 | · | 9 | 3
CS(=O)(=O)Oc1ccc(/C=C2\C(=N)N3N=C(CC(=O)N4CCOCC4)SC3=NC2=O)cc1Cl | · | -50 | · | · | -4
CC1CCc2nc3ccc(S(=O)(=O)N4CCC(C(=O)O)CC4)cc3c(C(=O)O)c2C1 (stereo unspecified) | · | -3.5 | · | · | 5
O=C1C2C3C=CC(CC3)C2C(=O)N1/N=C/c1c[nH]c2ccccc12 (stereo unspecified) | -4% | -3.5 | · | -6 | -1
COCCNC(=O)CCc1c(C)nc2c(c(C)nn2-c2ccc(C)cc2)c1C | · | 0.7 | · | · | -1
CC(C)C(=O)N1CCN(c2nc(-c3ccccc3)c3c(c2C#N)CCCC3)CC1 | 7% | 31* | -19 | -30 | 3
CCOC(=O)c1ccc(NC(=O)CN2C(=O)C(C)SC(C)C2=O)cc1 (stereo unspecified) | 6% | 2.5 | -26 | -4 | -2
Cc1ccc(C(=O)NC(=S)NNC(=O)c2ccccc2[N+](=O)[O-])cc1 | 10% | 9.9 | -39 | 5 | -8
COc1ccc(S(=O)(=O)NCc2ccccc2Cl)cc1OC | -11% | -3.7 | -38 | 2 | -4 | Arbovirus anti repeat=-2
Cc1cc(C)c[n+](C(C)C(=O)c2ccc(Cl)cc2)c1 (stereo unspecified) | · | -0.4 | · | · | 4
Cc1cc(NS(=O)(=O)c2ccc(NC(=O)C(C)Oc3ccc(C(C)C)cc3)cc2)no1 (stereo unspecified) | · | 2.0 | · | · | 7
CCOc1ccc(OCC(=O)OCn2c(SC)nnc(C)c2=O)cc1 | 3% | 8.3 | -36 | -6 | 6
Cc1cccc(CN2C(=O)CSc3ccc(C(=O)NC4CC4)cc32)c1 | · | 4.7 | · | · | -5
COc1ccc(NC(=O)CC(C)NCCCN2CCCC2=O)cc1 (stereo unspecified) | · | -2.6 | · | · | -2
COC(=O)CC1=NN(c2nc(C)cc(C)n2)C(=O)C1 | -7% | 36* | · | -4 | -2
CC(C)c1ccc(NC(=S)NN(c2ccccc2)c2ccccc2)cc1 | 5% | 8.8 | -14 | -5 | -5
CC1(C)CC(=O)C(C(N)=NC(=O)c2ccccc2)=C(O)C1 | 3% | -1.5 | · | 0 | 0
COc1cccc(OC)c1C(=O)Nc1ccccc1C(=O)N1CCOCC1 | -3% | 0.0 | -15 | 2 | -10
CCC(=O)c1ccc(OCc2ccc(C(=O)OC)cc2)c(OC)c1 | 8% | 1.4 | -27 | -12 | ·
CCOc1ccc(Br)cc1S(=O)(=O)NC(=O)c1ccccc1 | 8% | -0.4 | · | 2 | -5
N#Cc1ccsc1NC(=O)CN1C(=O)NC2(CCCCC2)C1=O | · | -0.9 | · | · | -7
CN(Cc1c(C(=O)N/N=C/c2ccccc2)nnn1-c1nonc1N)C1CCCCC1 | · | -0.6 | · | · | -4
CC1=NN(C(=O)Cc2ccc([N+](=O)[O-])cc2)C(O)(C(F)(F)C(F)(F)F)C1 (stereo unspecified) | 0% | · | · | · | 1
CCC(C)[C@H]1CNCCN1CCc1cc(C(F)(F)F)cc(C(F)(F)F)c1 (stereo partly specified) | · | 2.7 | · | · | 38
CCN=C(NCC)SC1CC(=O)N(c2ccc(F)cc2)C1=O (stereo unspecified) | -1% | 0.6 | · | -2 | -8
Cc1cc(C)cc(N(CC(=O)NCC2CCCO2)C(=O)CCC(=O)Nc2nccs2)c1 (stereo unspecified) | · | 4.5 | · | · | -2
CCCCn1nnnc1SCC(=O)Nc1ccc2c(c1)OCO2 | 16% | · | -7 | -31 | -9
O=C(Nc1cc(Cl)ccc1Cl)N1CCCC1 | -5% | -1.2 | · | -1 | 2
Cc1ccc(C2=NN(S(C)(=O)=O)C(c3ccc4c(c3)OCO4)C2)cc1 (stereo unspecified) | 0% | -1.0 | -32 | -7 | -11
CC(Oc1ccc([N+](=O)[O-])cc1Cl)C(=O)Nc1ccc(C(N)=O)cc1 (stereo unspecified) | 3% | -0.5 | · | 5 | -2

Fetched by compound from above:
SMILES | Mtb growth | RecA intein inh | YopH PTP inh | Arbovirus anti | Mtb betalactam | others
CC(Oc1ccc([N+](=O)[O-])cc1Cl)C(=O)Nc1ccc(C(N)=O)cc1 (stereo unspecified) | 3% | -0.5 | · | 5 | -2
CCOc1ccc(OCC(=O)OCn2c(SC)nnc(C)c2=O)cc1 | 3% | 8.3 | -36 | -6 | 6
COc1ccc(S(=O)(=O)NCc2ccccc2Cl)cc1OC | -11% | -3.7 | -38 | 2 | -4 | Arbovirus anti repeat=-2
O=C(Nc1cc(Cl)ccc1Cl)N1CCCC1 | -5% | -1.2 | · | -1 | 2
CN(Cc1c(C(=O)N/N=C/c2ccccc2)nnn1-c1nonc1N)C1CCCCC1 | · | -0.6 | · | · | -4

(further entries)
SMILES | Mtb growth | RecA intein inh | YopH PTP inh | Arbovirus anti | Mtb betalactam | others
FC(F)(F)c1cnc(Oc2ccc(-c3nnco3)cc2)c(Cl)c1 | -6% | 3.3 | -50 | 0 | 6
Clc1ccc2c(N/N=C/c3cccnc3)ccnc2c1 | -3% | -1.9 | · | -20 | 81
COc1cccc(-c2cc(C(=O)NC3CC3)c3ccccc3n2)c1 | · | -1.3 | · | · | 1
CCCn1c(N)c(N(CCOC)C(=O)Cc2ccc(S(=O)(=O)N3CCOCC3)s2)c(=O)[nH]c1=O | · | -4.2 | · | · | -5
COc1ccc(NC(=O)c2ccccc2SC)cc1 | -2% | 0.6 | · | 11 | 13
O=C(NNC(=O)C1CCN(S(=O)(=O)c2ccc(Cl)cc2)CC1)c1ccc(S(=O)(=O)N2CCCCC2)cc1 | -4% | -2.4 | -24 | 6 | -4
Cc1cccc(N(C)C(=O)COc2cc(=O)n(C)c3ccccc23)c1 | 5% | 0.0 | 4 | 9 | 2
O=C(NCC1CCCO1)C(c1ccc(F)cc1)N(CC1CCCO1)C(=O)c1ccc(-c2ccccc2)[nH]1 (stereo unspecified) | -6% | -4.0 | · | -20 | 36
Nc1cc(C(=O)OCC(=O)NCC2CCCO2)ccc1Cl (stereo unspecified) | -7% | -3.3 | -40 | -5 | -4
C/C(N)=C(/C#N)C(=O)COC(=O)CSc1ccc2ccccc2c1 | 1% | -1.7 | 0 | 4 | 8
CCOc1ccc(C(=O)c2ccc([N+](=O)[O-])cc2Cl)cc1 | 12% | -4.6 | · | -19 | 4
CN(C)CCCOC(=O)c1ccc(Cl)cc1 | · | -0.8 | -33 | 12 | 23
CC(OC(=O)C(NC(=O)c1ccco1)C(C)C)C(=O)Nc1ncc(Cl)cc1Cl (stereo unspecified) | -14% | -0.8 | -43 | 4 | -12
Cc1ccc2cc(CN(C(=O)c3ccco3)c3cccc(C)c3C)c(=O)[nH]c2c1 | -1% | 0.9 | · | · | -1
CC(C)(C)c1ccc(C(=O)NCC(=O)OCCN2C(=O)c3ccccc3C2=O)cc1 | · | 3.5 | · | · | 0
O=C(O)C1Nc2ccc(Br)cc2C2C=CCC12 (stereo unspecified) | · | 0.4 | · | · | -7
Cc1sc2ncnc(N3CCC(C(=O)Nc4ccc(C#N)cc4)CC3)c2c1C | · | -1.7 | · | · | -2
CCNC(=S)N(CCN(C)C)Cc1cc2cc(OCC)ccc2[nH]c1=O | 0% | 0.1 | · | -1 | 8
CCNc1nc(NCC)nc(N/N=C/c2ccc(O)c(O)c2)n1 | 5% | -5.3 | · | -6 | -1
ONC(=Nc1ccc(Cl)cc1)c1ccc(Cl)cc1 | -14% | 20 | -40 | 18 | 8
COC(=O)C1=C(C(=O)OC)SC(=C2C(=S)C(C)(C)N(C(=O)C3CC3)c3ccccc32)S1 | 3% | · | 4 | -16 | 6
O=C(Nc1cccc(C(=O)N2CCOCC2)c1)c1ccccc1 | 1% | 2.0 | -7 | 8 | -1
Cc1ccc(C(=O)NCCCNC(=O)c2ccco2)cn1 | · | -2.3 | · | · | -2
CCCN1CCC(=O)N([C@H](CSc2ccc(C)cc2)Cc2ccccc2)CC1 | 1% | 2.1 | · | · | ·
Clc1ccc(Cn2ncc3c(N4CCCCC4)ncnc32)c(Cl)c1 | -1% | 5.4 | -47 | -4 | -5
CCOc1ccc(-c2nnc3sc(COc4ccc(C)cc4)nn23)cc1 | 7% | 2.1 | -46 | 6 | -6
COC(=O)c1sccc1NC(=S)N1CCCCC1C (stereo unspecified) | 2% | 5.7 | -22 | -1 | 11
O=C1c2ccccc2C(=O)N1S(=O)(=O)c1ccccc1 | · | -1.8 | · | · | -1
O=C(Cn1nnc(-c2ccccc2)n1)Nc1ccccc1N1CCOCC1 | -2% | -0.1 | -50 | -2 | -8
CC(C)c1nc2ccccc2c2nnc(SCC(=O)NCc3ccco3)n12 | -7% | -6.3 | -58 | 2 | -13
CN(CCOC(=O)c1cccc(F)c1)Cc1ccccc1 | 2% | 7.2 | 4 | -4 | 4
CCOC(=O)C(=Cc1ccc(OCc2ccc([N+](=O)[O-])cc2)c(OC)c1)C(=O)OCC | 0% | 3.0 | -9 | -44 | 86
COc1cccc(CNC(=O)CCS(=O)(=O)c2cccc3nsnc23)c1 | · | -0.2 | -11 | 0 | -9 | Arbovirus anti repeat=0
OCC1(CCOc2ccccc2)CCN(Cc2ccccc2OC(F)F)CC1 | · | -0.2 | · | · | -3
O=C(Oc1ccc(C(=S)N2CCCCC2)cc1)c1ccccc1 | 7% | 1.3 | · | -2 | 6
O=[N+]([O-])c1ccc(Sc2n[nH]c(-c3ccccc3)n2)nc1 | 9% | 4.5 | -20 | 4 | 11
O=C(c1ccccc1F)N1CCN(c2ccc([N+](=O)[O-])c(NCc3cccnc3)c2)CC1 | 6% | 4.6 | · | · | 5
Cn1nc(C(F)(F)F)c(/C=N/OC(=O)c2ccccc2Cl)c1SCc1ccccc1Cl | -2% | 4.6 | -46 | -31 | 6
C/C(=C\c1ccccc1)C(=O)NC1CCSC1=O (stereo unspecified) | -4% | -1.6 | 3 | 1 | -9
CNC(=O)COC(=O)c1ccc(OCC(=O)Nc2ccccc2OC)c(OC)c1 | 0% | -0.5 | · | 10 | 2
CSc1ccc(C(=O)NCC(=O)O)cc1[N+](=O)[O-] | -8% | 0.7 | · | · | -3
CCOC(=O)c1ccc(-c2ccc(/C=N/NC(=O)c3cncc(Br)c3)o2)cc1 | 4% | -5.3 | · | · | -4
CCC(CC)c1nnc(NC(=O)C2CSC3(C)CCC(=O)N23)s1 (stereo unspecified) | · | -0.8 | · | · | -3
CC(C)CCNc1nc2ccccc2nc1NS(=O)(=O)c1cccs1 | -4% | 3.8 | · | · | 2
O=C(CN1C(=O)C2C3C=CC(C3)C2C1=O)Nc1ccc2nccnc2c1 (stereo unspecified) | 5% | -0.2 | -17 | -9 | -5 | Arbovirus anti repeat=-1
Cc1nc(-c2ccccc2)nc2[nH]c(-c3ccccc3)cc(=O)c12 | 1% | 7.4 | -18 | 4 | -2
O=C(c1ccc(Cl)cc1)c1c[nH]c(C(=O)NNc2cccc(Cl)n2)c1 | 5% | 0.8 | · | -14 | -1
Cc1cc(C)nc(NS(=O)(=O)c2ccc(N3C(=O)c4ccccc4C3=O)cc2)n1 | 8% | -7.2 | -9 | -1 | 0
O=C(COn1nnc2ccccc21)NCC1CCCCC1 | -8% | 2.5 | -52 | -8 | -8
C/C(=N\NC(=O)c1cccc(S(=O)(=O)N2CCCC2)c1)c1cccs1 | 4% | -0.6 | · | -2 | -3
O=C(N1CCN(c2ccccc2F)CC1)C1(c2cccs2)CCOCC1 | 3% | -4.7 | -19 | 8 | -2
Cc1ccccc1/C=N/NC(=O)Cc1ccc(Cl)cc1 | 8% | -0.5 | · | 5 | 1

Molecules from the list above containing a COOH group:
SMILES | Mtb growth | RecA intein inh | YopH PTP inh | Arbovirus anti | Mtb betalactam | others
CC1CCc2nc3ccc(S(=O)(=O)N4CCC(C(=O)O)CC4)cc3c(C(=O)O)c2C1 (stereo unspecified) | · | -3.5 | · | · | 5
O=C(O)C1Nc2ccc(Br)cc2C2C=CCC12 (stereo unspecified) | · | 0.4 | · | · | -7
CSc1ccc(C(=O)NCC(=O)O)cc1[N+](=O)[O-] | -8% | 0.7 | · | · | -3
